KCNQ2 inh – KCNQ2 channel blockers in CHO-K1 cells – cell-based, FluxOR thallium flux, B-score, primary screen (AID 2156) | 310,000 tested, 1.1% active | 20 min; stronger effect = lower value; only compounds with negative scores are shown here; some inactives read as strong as hits | B-score at 10 µM | O88943;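 active = fluorescence ratio B-score at most minus 3 library SDs, with starting brightness B-score within 2 library SDs, cut at about -5.5 in these data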
Target sequence (O88943 whole entry, looked up): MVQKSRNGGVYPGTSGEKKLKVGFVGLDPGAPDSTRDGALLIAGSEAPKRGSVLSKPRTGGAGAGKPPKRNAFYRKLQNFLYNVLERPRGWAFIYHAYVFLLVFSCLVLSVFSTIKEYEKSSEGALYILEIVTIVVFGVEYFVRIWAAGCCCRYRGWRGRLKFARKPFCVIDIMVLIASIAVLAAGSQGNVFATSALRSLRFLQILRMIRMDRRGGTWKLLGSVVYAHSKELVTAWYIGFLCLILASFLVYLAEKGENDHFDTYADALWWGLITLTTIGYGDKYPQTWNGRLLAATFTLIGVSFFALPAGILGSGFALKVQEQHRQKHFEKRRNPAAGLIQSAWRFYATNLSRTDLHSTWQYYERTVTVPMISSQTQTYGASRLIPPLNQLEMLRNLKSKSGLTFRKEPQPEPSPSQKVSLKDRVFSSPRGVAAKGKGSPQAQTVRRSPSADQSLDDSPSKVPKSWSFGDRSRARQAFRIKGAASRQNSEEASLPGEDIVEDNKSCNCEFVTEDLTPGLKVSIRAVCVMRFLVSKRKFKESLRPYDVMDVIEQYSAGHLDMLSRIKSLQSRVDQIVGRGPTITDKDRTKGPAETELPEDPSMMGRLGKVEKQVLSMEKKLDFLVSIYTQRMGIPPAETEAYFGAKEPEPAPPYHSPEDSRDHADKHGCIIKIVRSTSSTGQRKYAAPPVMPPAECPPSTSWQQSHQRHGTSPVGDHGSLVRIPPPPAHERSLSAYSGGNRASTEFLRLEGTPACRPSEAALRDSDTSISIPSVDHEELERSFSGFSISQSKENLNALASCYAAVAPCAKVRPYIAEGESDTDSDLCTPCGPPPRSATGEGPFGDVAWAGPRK
KCNQ2 inh baseline – recorded beside KCNQ2 inh, whose call it bears; B-score; measured here: initial fluorescence intensity artifact check;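 brightness before thallium and not channel activity; 0 = typical well and far values either way flag optical interference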
* marks the source's active call; other numbers are inactive results; i = inactive. A portion of the library, so the mix of outcomes need not match the whole.

SMILES | KCNQ2 inh | KCNQ2 inh baseline
O=C(Nc1nc(-c2ccc(S(=O)(=O)N3CCCCCC3)cc2)cs1)c1cccs1 | i | 1.5
O=C(Nn1cnnc1)c1ccc(Cl)c([N+](=O)[O-])c1 | i | -0.49
COc1ccc(CN2CCN(C3CCOCC3)CC2CCO)c(C)c1C (stereo not given) | i | 0.04
O=C(Nc1ccccc1)NN1CC(=O)N(c2ccc(Cl)cc2)CC1=O | i | 0.72
Cc1ccc(S(=O)(=O)c2nc(-c3ccccc3F)oc2N2CC(C)OC(C)C2)cc1 (stereo not given) | i | -0.54
CCn1c(COc2ccc(C)cc2)nc2ccccc21 | i | -0.81
Cc1ccc(-c2noc(CN(C(=O)C(c3ccccc3)c3ccccc3)C(C)C)n2)cc1 | i | 0.53
O=C(COC(=O)c1ccc2c(=O)n3c(nc2c1)CCC3)Nc1ccc(OC(F)F)cc1 | i | 2
CCCCCC(=O)N1CCCC(c2nc(-c3ccc(OC)cc3)no2)C1 (stereo not given) | i | 0.8
COc1ccc(-c2n[nH]c(=S)n2-c2ccc3c(c2)OCCO3)cc1OC | i | 1.6
CCOC(=O)c1ccc2nc(C)c3c(c2c1)OC(C)C3 (stereo not given) | i | 2
Cc1oc(-c2cccc(F)c2)nc1CN1CCCN(C(=O)c2ccco2)CC1 | i | -0.74
CC1CCCCN1CC(=O)Nc1ccc(Oc2ccccc2)cc1 (stereo not given) | i | 0.95
Cc1cc(C)c(-n2c(SCc3nc4ccccc4s3)n[nH]c2=O)c(C)c1 | i | -0.44
Cc1ccc(O)c(NC(=S)NC(=O)CC(C)C)c1 | i | -1.9
Cc1cc(C)n(CC(C)C(=O)O)n1 (stereo not given) | i | -3.3
Cc1c(Cl)cccc1Nc1nc(N)nc(CSc2ncccn2)n1 | i | 0.26
CCOc1cc(/C=C(\C#N)c2[nH]nc(N)c2C#N)ccc1O | i | -0.22
CCOc1ccc(Oc2ccc(-c3nnc(-c4ccccc4)o3)cc2[N+](=O)[O-])cc1 | i | -0.93
O=C(COC(=O)/C(=C/c1cccs1)c1cccs1)NC(c1ccccc1)c1ccccc1 | -8.6* | 0.01*
CN(C)c1nc(N)nc(Cn2ccnc2)n1 | i | 6.9
CCOC(=O)c1ccccc1N/C=C1\CCCC1=O | i | -1.3
Cc1ccccc1-c1nc2sc(-c3ccccc3)cc2c(=O)o1 | i | 0.77
COc1cc(NS(=O)(=O)c2ccc(NC(=S)NC(=O)c3sc4ccccc4c3Cl)cc2)nc(OC)n1 | i | -1.4
O=C(OCC(=O)c1ccc[nH]1)c1ccc(S(=O)(=O)N2CCCCCC2)cc1 | i | 0.17
COc1cc(OC)c2c(-c3ccccc3)cc(=O)oc2c1C(CC(=O)N1CCCC1)c1ccc2c(c1)OCO2 (stereo not given) | i | 1.5
Cc1ccc2nc(N(CCCN(C)C)C(=O)c3cc4ccccc4oc3=O)sc2c1 | i | -1.2
COc1ccc(C(=O)OC(C)C(=O)NC2CCCCC2C)cc1S(=O)(=O)N1CCOCC1 (stereo not given) | i | 0.21
CCOC(=O)c1ccccc1NC(=O)COC(=O)CN1C(=O)C2CC=CCC2C1=O (stereo not given) | i | -1.1
CC(C)(C)c1ccc(OCC(=O)Nc2ccc3c4c(cccc24)C(=O)NC3=O)cc1 | i | 2.5
Cc1ccccc1OCC(=O)NS(=O)(=O)c1ccc(Cl)cc1 | i | 1.4
NS(=O)(=O)c1ccc(NC(=O)COC(=O)C2(c3ccccc3F)CCCC2)cc1 | i | 0.46
COc1ccc(-c2csc(N(CC(C)C)C(=O)c3ccco3)n2)cc1 | i | -1.1
FC(F)Oc1ccccc1/C=N/n1cnc2ccccc21 | i | 2
COc1cccc(OCC(O)CN2CCN(c3ccc(F)cc3)CC2)c1 (stereo not given) | i | 1.7
COc1ccccc1C(=O)N1CCC(N2CCN(c3ccccc3OC)CC2)CC1 | i | -3.3
Cc1cccc(OCCCc2c(C)n[nH]c2C)c1 | i | -1.6
O=C(NC1=NCCS1)c1ccc(C(F)(F)F)cc1 | i | 2.2
NCC/C=C1/c2ccccc2CSc2ccccc21 | i | -0.33
CC(=O)c1ccc(N2CCN(S(=O)(=O)c3ccc(-c4cnc(C5CC5)o4)cc3)CC2)cc1 | i | 1.2
Cc1ccc(N2CC(C(=O)Nc3ccc(S(=O)(=O)Nc4nccs4)cc3)CC2=O)cc1C (stereo not given) | i | -0.26
COc1ccc(C(=O)C2CCN(C(=O)c3ccc(F)cc3)CC2)cc1 | i | 0.42
CS(=O)(=O)N(CCc1ccccc1)CC(=O)NCc1ccccc1Cl | i | -0.47
O=C(NC1CC1)C1=C[C@H](c2coc3ccccc3c2=O)C[C@H](OCc2ccc(CO)cc2)O1 | i | -1.2
Cc1ccc2nc3c(c(C(=O)OCC(=O)N(C)C4CCS(=O)(=O)C4)c2c1)CCCC3 (stereo not given) | i | 2.3
O=C(Cn1nnc(-c2ccccc2F)n1)NCCc1ccccc1 | i | 0.62
COc1ccccc1C(=O)NCCC(=O)NCC(c1ccco1)N1CCCCC1 (stereo not given) | i | 0.88
CC1=NN(C(C#N)c2c(C)nn(Cc3ccccc3)c2C)C(C)(C)C1 (stereo not given) | i | 1.5
Cc1cc(/C=C(\C#N)C(=O)NCc2ccco2)c(C)n1C1CCCC1 | i | -0.71
COC(=O)CNC(=O)C(NC(=O)c1ccc(Cl)cc1)C(C)C (stereo not given) | i | 1.9

Other compounds follow.
SMILES | KCNQ2 inh | KCNQ2 inh baseline
CCn1c(-c2cc3ccccc3cc2O)n[nH]c1=S | i | 0.73
C=CCc1ccc(OCC(O)CN2CCc3ccccc3C2)c(OC)c1 (stereo not given) | i | -0.05
O=C(C1CCCCC1)N(Cc1nc2sc3c(c2c(=O)[nH]1)CCCC3)Cc1cccs1 | i | 0.1
Cc1cc(N2CCN(c3ncccn3)CC2)nc2c(C)cccc12 | i | 0.39
Cc1ccc(Cl)cc1N1CCN(Cc2nnnn2C2CCCCC2)CC1 | i | 0.06
CC(C)(C)OC(=O)N1CCC[C@H]1c1nnc(SCc2ccccc2)o1 | i | 1
O=C(O)C1CCN(C(=O)COc2ccc3c4c(c(=O)oc3c2)CCCC4)CC1 | i | -0.67
CCOC(=O)CCS(=O)(=O)c1ccc(-c2ccc(S(=O)(=O)CCC(=O)OCC)cc2)cc1 | i | -0.7
COc1ccc(N2CCN(Cc3cc(=O)c(OCC(=O)NC4CCCC4)co3)CC2)cc1 | i | 1.2
NNc1nc2sc3c(c2c(=O)n1C1CCCCC1)CCN(Cc1ccccc1)C3 | i | -1.4
Cc1ccc(CNC(=O)[C@@H](NC(=O)Cc2ccccc2)C(C)C)cc1 | i | -0.53
Cc1ccn2c(CNCC3OCCc4ccccc43)c(C(=O)N3CCCCCC3)nc2c1 (stereo not given) | i | -0.6
CCNC(=S)Nc1cc(-c2ccc(Cl)cc2)[nH]n1 | i | -0.67
Cc1ccc(/C=C/C(=O)NC(=S)N2CCN(c3ccc(F)cc3)CC2)cc1 | i | -0.7
Cc1ccc(NC(=O)c2c3c(nc4ccccc24)CCC3)cc1 | i | 0.52
COCCNC(=S)N/N=C/c1ccc(-c2ccc([N+](=O)[O-])cc2)o1 | i | 0.13
CCCCCN(C(=O)NC(=O)Nc1ccccc1OC)S(C)(=O)=O | i | -0.04
CCN(CC)S(=O)(=O)c1ccc(N2CCCCC2)c(NC(=O)/C=C/c2ccc(OC)c(OC)c2)c1 | i | -0.21
CCN(CC)S(=O)(=O)c1cc(C(=O)NC2CCCCC2)ccc1C | i | -2.6
O=c1c2ccccc2c(/C=N/n2cnnc2)c(O)n1-c1ccccc1 | i | 1.6

A draw from above in order of formula weight, falling.
SMILES | KCNQ2 inh | KCNQ2 inh baseline
Cc1ccn2c(CNCC3OCCc4ccccc43)c(C(=O)N3CCCCCC3)nc2c1 (stereo not given) | i | -0.6
Cc1ccc(NC(=O)c2c3c(nc4ccccc24)CCC3)cc1 | i | 0.52
O=C(NC1=NCCS1)c1ccc(C(F)(F)F)cc1 | i | 2.2

The list goes on:
SMILES | KCNQ2 inh | KCNQ2 inh baseline
COc1ccc(C(=O)N2CCCN(C)CC2)c(OC)c1 | i | 1.4
COc1ccccc1CNC(=O)COC(=O)C1=COCCO1 | i | -0.13
Cc1c(NC(=O)C(C)N(c2ccccc2)S(C)(=O)=O)c(=O)n(-c2ccccc2)n1C (stereo not given) | i | 3.2
Cc1[nH]c2ccccc2c1SCC(=O)NNC(=O)Nc1ccc(OC(F)(F)F)cc1 | i | 1.4
COc1ccc(OC)c(-n2c(-c3cc(-c4ccco4)[nH]n3)n[nH]c2=S)c1 | i | 1.2
C=CCN1C(=O)C(CC(=O)Nc2ccccc2)S/C1=N/c1nccs1 (stereo not given) | i | 0.28
Fc1ccc(Cn2nnc(-c3ccc(CN4CCOCC4)cc3)n2)cc1 | i | 0.98
CC(C)NC(=O)Cn1cnc2c1c(=O)n(C)c(=O)n2C | i | 1.8
COc1ccc(S(=O)(=O)N(C)CC(=O)NCc2cccnc2)cc1 | i | 0.21
CCOC(=O)C(NCc1ccc(F)cc1)(NC(=O)c1ccccc1)C(F)(F)F (stereo not given) | i | 0.01

Entries above that have a Cl atom, in the order listed:
SMILES | KCNQ2 inh | KCNQ2 inh baseline
O=C(Nn1cnnc1)c1ccc(Cl)c([N+](=O)[O-])c1 | i | -0.49
O=C(Nc1ccccc1)NN1CC(=O)N(c2ccc(Cl)cc2)CC1=O | i | 0.72
Cc1c(Cl)cccc1Nc1nc(N)nc(CSc2ncccn2)n1 | i | 0.26
COc1cc(NS(=O)(=O)c2ccc(NC(=S)NC(=O)c3sc4ccccc4c3Cl)cc2)nc(OC)n1 | i | -1.4
Cc1ccccc1OCC(=O)NS(=O)(=O)c1ccc(Cl)cc1 | i | 1.4
CS(=O)(=O)N(CCc1ccccc1)CC(=O)NCc1ccccc1Cl | i | -0.47
COC(=O)CNC(=O)C(NC(=O)c1ccc(Cl)cc1)C(C)C (stereo not given) | i | 1.9
Cc1ccc(Cl)cc1N1CCN(Cc2nnnn2C2CCCCC2)CC1 | i | 0.06
CCNC(=S)Nc1cc(-c2ccc(Cl)cc2)[nH]n1 | i | -0.67

Next results:
SMILES | KCNQ2 inh | KCNQ2 inh baseline
Cc1ccc(C)n1-c1ccc(C#N)cn1 | i | 0.92
COc1ccc(S(=O)(=O)N(CC(=O)NCc2ccncc2)c2ccc(C)cc2)cc1Br | i | -2.1
CN(Cc1nc2ccccc2c(=O)[nH]1)CC(O)COCc1ccco1 (stereo not given) | i | -0.45
CCC1Oc2ccc(C)cc2N(CC(=O)NCCc2ccc(OC)c(OC)c2)C1=O (stereo not given) | i | -2
COCC(=O)N1CCCN(c2nc3c(C)cccc3cc2C#N)CC1 | i | 0.82
CCOC(=O)c1cc(CC)sc1NC(=O)CN1CCN(C(=O)C2CCCO2)CC1 (stereo not given) | i | -1.2
COc1ccc(-n2c(=S)[nH]c3cc(C(=O)NCCCN4CCOCC4)ccc3c2=O)cc1 | i | -0.55
CN1C(=O)NC(c2ccccc2[N+](=O)[O-])C2=C1CCCC2=O (stereo not given) | i | 12
CCN(CC)CCn1c(=S)[nH]c2cc3c(cc2c1=O)OCO3 | i | 0.62
CCN(CC(=O)NCc1ccc(F)cc1)C(=O)c1ccc(COc2ccccc2)cc1 | i | -1.1
Cc1ccc(C(=O)NNc2nc3ccccc3nc2C(F)(F)F)cc1 | i | 0.5
COc1ccc(Cn2ccnc2SCC(=O)Nc2ccccc2F)cc1 | i | 0.01
COc1ccc(CCNC(=O)C(=O)NCC2OCCN2C(=O)c2ccc(Cl)cc2)cc1OC (stereo not given) | i | -1
Cc1ccc2cc(C#N)c(N3CCCN(S(=O)(=O)c4ccccc4)CC3)nc2c1C | i | 0.07
COc1cc(Cl)cc(NC(=O)CCN2CCN(C)CC2)c1 | i | 3
CCCCn1c(SCC(=O)Nc2ccc(C)c(S(=O)(=O)N3CCOCC3)c2)nnc1C(CC)N(C)C (stereo not given) | i | 3.1
O=C(c1cc2cc(F)ccc2[nH]1)N(Cc1cccnc1)CC1CCCN(C2CCCCC2)C1 (stereo not given) | i | -0.87
CCC1CN(C(=O)NCc2ccc(F)cc2)c2ccccc2O1 (stereo not given) | i | -0.11
CC(C)Nc1nc(NNc2nc(Cl)nc(NC(C)(C)C)n2)nc(NC(C)C)n1 | i | -0.01
CC(C)Cc1nc(Nc2ccccc2C#N)c2nnn(Cc3ccccc3)c2n1 | i | 0.34
COc1ccc(CNC(=O)[C@@H](NC(=O)C2CCN(C(=O)[C@@H]3CCCN3C(=O)OC(C)(C)C)CC2)C(C)C)cc1 | i | 0.14
Cc1ccc(SCCCCN2CCOCC2)cc1 | i | 0.7
CCN(CC)C(=S)NC(=O)c1cc(OC)c(OC)c(OC)c1 | i | 1.5
Cc1cc(C(=O)Nc2nccs2)c2cc(F)ccc2n1 | i | -0.73
CC(=O)N1CCN(C(=O)COC(=O)COc2ccc(C#N)cc2)CC1 | i | 0.48
c1ccc2c(c1)NC(CN1CCOCC1)CO2 (stereo not given) | i | 1.3
O=C(c1ccc(CS(=O)c2cccc(Cl)c2)o1)N1CCCCCC1 (stereo not given) | i | 2.3
C=CCn1c(COc2ccccc2)nnc1SC(C)C(=O)N/N=C/c1cc(Cl)ccc1O (stereo not given) | -7.6* | 0.6*
Cn1cc(CNC(=O)c2cc(-c3ccc(Br)cc3)nc3ccccc23)cn1 | i | -1.8
CCCn1cnc2cc(NCc3ccccc3O)ccc21 | i | -1.6
COc1ccccc1NC(=O)NNC(=O)c1ccc2ccccc2c1O | i | -0.49
CCOC(=O)CSc1nnc([C@H](Cc2ccccc2)NC(=O)OC(C)(C)C)o1 | i | 1.2
CC1=C(C(N)=O)C(c2ccc3c(c2)OCO3)n2nc(-c3cccc(C)c3)nc2N1 (stereo not given) | i | 1.7
Cc1csc(NC(=O)c2cc3c(s2)-c2ccccc2OC3)n1 | i | 3.1
Nc1cnccc1C(=O)O | i | -1.4
O=C(Nc1cccc2ccccc12)NC1CCCCC1O (stereo not given) | i | 1.1
CCN(CC)Cc1c(C(=O)N/N=C/c2cccc3ccccc23)nnn1-c1nonc1N | i | 0.65
Cc1ccc2c(CC(=O)N3CCOCC3)coc2c1 | i | -2.6

Screening results from PubChem BioAssay.
